S aureus helic: blocks Staphylococcus aureus DNA helicase; purified S. aureus helicase, fluorescence unwinding assay; about half of the hits fall short of the stated cut; inhibition, %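 (tested at about 80 µM)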; actives 0.05% (n = 120,000); AID 485395;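 active = both duplicates at 50% or more, or one of them with a favoured structure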;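 also: 0% = mean of negative control wells and 100% = mean of positive control wells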
MgrA DNA FP: alters Staphylococcus aureus MgrA binding to DNA. actives 0.13% (n = 84,000). fluorescence polarization. inhibition, %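 (about 10 µg/mL by stock and volumes)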. AID 602314;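 active = above 50% in either of two replicates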;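 also: 0% = protein plus DNA without compound and 100% = DNA alone without protein; higher means less MgrA bound to DNA so lower polarization; one replicate is shown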
The depositor's hits bear a star; x = no result given; & = joins results of further samples.

The first 5 entries as a preview:
nr	molecule	MgrA DNA FP	S aureus helic
1	CN(C(=S)Nc1ccccc1)C1CCC(C2OCCO2)CC1O (centres undefined)	0.3	-16
2	COc1ccc(CCNC(=S)N2CCCCC2C(N)=O)cc1 (centres undefined)	x	-4
3	Cc1cccc(-c2noc(NC(=O)NNc3c(Cl)cccc3Cl)n2)c1	x	21
4	FC(F)(F)c1ccc(Cl)nc1	-0.3	-6
5	Cc1cc(C)c2c(n1)SCC(=O)N2CC(=O)Nc1cccc(Cl)c1	x	17

The whole of this part, from the start:
nr	molecule	MgrA DNA FP	S aureus helic
1	CN(C(=S)Nc1ccccc1)C1CCC(C2OCCO2)CC1O (centres undefined)	0.3	-16
2	COc1ccc(CCNC(=S)N2CCCCC2C(N)=O)cc1 (centres undefined)	x	-4
3	Cc1cccc(-c2noc(NC(=O)NNc3c(Cl)cccc3Cl)n2)c1	x	21
4	FC(F)(F)c1ccc(Cl)nc1	-0.3	-6
5	Cc1cc(C)c2c(n1)SCC(=O)N2CC(=O)Nc1cccc(Cl)c1	x	17
6	CCOC(=O)c1c(C)c2c(=O)[nH]cnc2n1-c1ccccc1	0.9	x
7	O=c1[nH]c2ccccc2nc1-c1cc(-c2ccccc2)c(-c2ccccc2)s1	2.0	x
8	CCC(=O)Nc1nc2ccc(OC)cc2s1	6.5	8
9	COc1ccc(/C=C/C(=O)NC(N)=S)cc1	x	-3
10	O=S(=O)(NCCNc1nccc(C(F)(F)F)n1)c1ccccc1	-0.1	x
11	CCc1ccc(CNC(=O)CCC(=O)N2CCCn3nc(C)cc32)cc1	x	11
12	O=C(NCc1ccco1)c1cccc(S(=O)(=O)Nc2ccc(Br)cc2)c1	x	-4
13	Cc1ccccc1NC(=O)C(C)Sc1nc2ccccc2c(=O)n1C (centres undefined)	0.5	3
14	CCOC(=O)c1cc(-c2ccccc2)n(CCCC(=O)N2CCCCC2)c1C	-0.2	12
15	CCOC(=O)C1CCN(C(=O)c2ccc3snnc3c2)CC1	x	-12
16	COc1cccc2c(=O)c(NC(=O)NCCCN3CCN(C)CC3)c[nH]c12	x	20
17	COc1ccccc1N(CC(O)Cn1ccnc1C)S(=O)(=O)c1ccc(C)cc1 (centres undefined)	-1.1	12
18	NC(=O)CSc1nc(-c2ccccc2)nc2c1CCCC2	-2.0	-2
19	Cc1ccc(C)c(-c2csc(NC(=O)CCCc3ccccc3)c2C(N)=O)c1	5.0	18
20	CCCc1nnc(NC(=O)C(C)N2C(=O)C3C4C=CC(C4)C3C2=O)s1 (centres undefined)	x	7
21	COc1cccc(C(c2sc3ncnn3c2O)N2CCC(C)CC2)c1 (centres undefined)	x	6
22	Cc1cccc(-c2nc3ccccc3c(=O)n2OC(=O)c2ccc(C)c(C)c2)c1	-0.2	4
23	CCOc1ccc(-n2cnnn2)cc1S(=O)(=O)NCc1ccccc1	x	15
24	Brc1ccccc1C=Nc1cccc2cnccc12	1.1	-6
25	CCN1CCN(C(=O)c2ccc(C#N)cc2)CC1	x	-3

Filtered by structure, those above containing fluorine
nr	molecule	MgrA DNA FP	S aureus helic
4	FC(F)(F)c1ccc(Cl)nc1	-0.3	-6
10	O=S(=O)(NCCNc1nccc(C(F)(F)F)n1)c1ccccc1	-0.1	x

Some values from the entries so far.
Entry for #2 under S aureus helic: -4
Entry for #9 under S aureus helic: -3
Entry for #10 under MgrA DNA FP: -0.1
Entry for #25 under S aureus helic: -3
Entry for #15 under S aureus helic: -12

(further entries)
nr	molecule	MgrA DNA FP	S aureus helic
26	CC(Oc1ccc(C(C)(C)C)cc1)C(=O)N1CCN(Cc2ccc3c(c2)OCO3)CC1 (centres undefined)	5.4	8
27	CN(CC(=O)NC1CCCC1)S(=O)(=O)c1ccc2c(c1)c(=O)n(C)c(=O)n2C	-1.0	17
28	CC(C)COc1ccc(N)cc1OCC(C)C	0.2	-17
29	Cc1ccc(CCNC(=O)c2coc3nc4ccccc4nc23)cc1	6.2	-5
30	CC1Cc2ccccc2N1C(=O)CSc1nc2ccccc2[nH]1 (centres undefined)	-3.1	18
31	O=C(O)CC1=C(c2ccc(Cl)cc2)CCC1=O	2.4	-12
32	O=C(CC(C(=O)c1ccccc1)c1cccs1)c1ccc(Cl)cc1 (centres undefined)	-1.2	x
33	CCS(=O)(=O)c1ccc2oc(=O)c(/C=C(\O)c3oc(C)nc3C)nc2c1	13	-8
34	CCOC(=O)c1c(C)nn(-c2ccc(N)cc2)c1C	-1.6	x
35	Nn1c(SCC(=O)NC2CCCCC2)nnc1-c1ccc(Cl)cc1	x	-19
36	O=S(=O)(NC1Cc2ccccc2C1)c1ccccc1	-3.0	x
37	COc1ccc(Cn2c(C)cc(O)cc2=O)cc1OC	-0.3	9
38	COCCN(Cc1nc2ccccc2c(=O)[nH]1)C(=O)C1CCCN1C(=O)c1cccs1 (centres undefined)	x	-11
39	COc1cc(-c2cc(C(=O)NCCCO)c3ccccc3n2)cc(OC)c1OC	x	0
40	O=C1NCCCC1C(=O)Nc1ccncc1 (centres undefined)	2.5	0
41	O=S(=O)(Nc1cccnc1)c1ccc2[nH]c3c(c2c1)CCCCC3	x	14
42	CCN(CC)CCOC(=O)c1ccc(NC(=O)CN2C(=O)/C(=C\c3ccc(OC)cc3)SC2=S)cc1	1.2	x
43	COc1cc(OC)cc(C(=O)NC(C)c2ccccc2)c1 (centres undefined)	x	41
44	N#CCOC(=O)/C=C/c1cn(Cc2ccccc2)nc1-c1cccs1	x	6
45	CCN(CC)C(=O)Cc1c(C(=O)O)[nH]c2ccccc12	-5.2	4
46	COc1cccc(C2NC(C(=O)O)C3C(=O)N(c4cccc(C(=O)O)c4)C(=O)C23)c1O (centres undefined)	-8.2	3
47	OC(COc1ccc(-c2ccccc2)cc1)CN1CCOCC1 (centres undefined)	x	-15
48	c1csc(C2=Nn3c(Cn4nnc5ccccc54)nnc3SC2)c1	x	4
49	CCOC(=O)c1ccc(OC(=O)c2ccc(Cl)cc2Cl)cc1	-2.0	x
50	CC(C)N(C(=O)Cn1nnc2c(cnn2-c2ccccc2)c1=O)C(C)C	2.8	3

Random excerpt: 3 compounds from above
nr	molecule	MgrA DNA FP	S aureus helic
40	O=C1NCCCC1C(=O)Nc1ccncc1 (centres undefined)	2.5	0
47	OC(COc1ccc(-c2ccccc2)cc1)CN1CCOCC1 (centres undefined)	x	-15
44	N#CCOC(=O)/C=C/c1cn(Cc2ccccc2)nc1-c1cccs1	x	6

New compounds follow
nr	molecule	MgrA DNA FP	S aureus helic
51	CCc1nnc(NS(=O)(=O)c2ccc(N)cc2)s1	-1.0	3
52	Nc1ccc(Oc2ccc(C(F)(F)F)cc2)nc1	-0.7	x
53	COc1ccc(S(=O)(=O)N2CCc3ccccc3C2C(=O)O)cc1 (centres undefined)	x	-14
54	CC(=O)OC[C@H]1O[C@@H](n2cnc3c(=O)[nH]c(N)nc32)[C@H](OC(C)=O)[C@@H]1OC(C)=O	x	30
55	CCCCCCCCCCCCCO	-2.6	x
56	CCOc1ccccc1NC(=O)c1ccc(Br)cc1F	x	5
57	C=CCn1c(SCc2cc(=O)[nH][nH]2)nc2sc(CC)cc2c1=O	-2.4	18
58	COc1ccccc1-n1c(SC(C)C(N)=O)nc2ccccc2c1=O (centres undefined)	x	-7
59	CCSc1nnc(NC(=O)c2cccc(C(F)(F)F)c2)s1	x	19
60	COc1ccc(Cn2c(O)c(C=Nc3cc(C)on3)c3ccccc3c2=O)cc1	x	-11
61	CCOc1ccc(Oc2ccc(C(F)(F)F)cc2N)cc1	1.0	3
62	COc1ccc(NC(=O)C(NC(=O)Cc2cccs2)c2ccccc2)cc1 (centres undefined)	x	5
63	Cc1cc(/C=C(\C#N)C(=O)N2CCc3ccccc3C2)c(C)n1C	-1.1	8
64	CC1=CC(c2ccccc2)NC(=S)N1 (centres undefined)	4.0	6
65	Cc1ccnc(NCc2ccc(N(C)C)cc2)c1	0.2	7
66	COc1cc(/C=C2\SC(NC(C)=O)=NC2=O)cc2sc(=O)oc12	20	x
67	COCn1nc(-c2ccc(Cl)cc2Cl)oc1=S	2.1	1
68	Cc1ccc(S(=O)(=O)N(Cc2ccccc2)C(C#N)c2ccc3c(c2)OCO3)cc1 (centres undefined)	0.1	x
69	CCN(CC(=O)N1CCCCC1)S(=O)(=O)c1ccccc1	2.1	9
70	CCOC(=O)C1=C(Cn2ccnc2)NC(=O)NC1c1ccc(Cl)cc1 (centres undefined)	-1.4	8
71	CC1(C(=O)NC2CCCCC2)CCC(=O)N1Cc1cccnc1 (centres undefined)	1.0	-12
72	CCCC1/C(=N\O)CC(c2ccco2)NC1c1ccco1 (centres undefined)	-1.7	x
73	O=C(Oc1nsnc1N1CCOCC1)N1CCCCC1	x	25
74	COC(=O)CC(c1ccc(Br)cc1)n1cccc1 (centres undefined)	-2.4	x
75	CSc1ccccc1NC(=O)c1nn2c(c1Br)NC(c1cccs1)CC2C(F)(F)F (centres undefined)	1.4	x

New compounds follow:
nr	molecule	MgrA DNA FP	S aureus helic
76	Cc1ccc(S(=O)(=O)NCCc2ccncc2)cc1	-0.1	x
77	O=C1CC(C(=O)N2CCCC2)CN1CCc1ccc(F)cc1 (centres undefined)	3.5	7
78	Cc1ccc(N=C2SC3(CC3)C(=O)N2c2ccc(C)cc2)cc1	-1.1	x
79	Cc1ccc(-c2cc(C(F)(F)F)n3nc(C(=O)Nc4ccn(Cc5ccccc5)n4)cc3n2)cc1C	2.0	7
80	Cc1cc(C)cc(NC(=O)C(OC(=O)C2CCC(=O)N2)c2ccccc2)c1 (centres undefined)	-1.8	6
81	c1coc(-c2nnc(C3CCCCC3)o2)c1	-1.7	2
82	O=C1C=C(NCc2ccc(Cl)cc2)CC(c2ccco2)C1 (centres undefined)	2.4	-11
83	O=C(O)C1CCC1C(=O)Nc1nc(-c2ccc(Cl)s2)cs1 (centres undefined)	2.9	x
84	CCOC(=O)c1ccc(NC(=O)C2CC(=O)N(C)C(=Nc3ccc(OC)cc3)S2)cc1 (centres undefined)	0.4	x
85	COCCSc1nnc(NC(=O)C2CCCO2)s1 (centres undefined)	4.2	-14
86	COc1ccc(NC(=O)COc2ccc(C)c(C)c2)c(OC)c1	1.2	15
87	COc1cccc(CC2CC(=O)N(c3ccc4c(C)cc(=O)oc4c3)C2=O)c1 (centres undefined)	0.1	11
88	N#C/C(=C/C=C/c1ccc(-c2cc(Cl)ccc2Cl)o1)C(N)=S	-1.2	4
89	CCC(CC)c1nnc(NS(=O)(=O)c2ccc(C)cc2)s1	0.2	6
90	O=C(CCN1C(=O)/C(=C/c2ccccc2)SC1=S)OC1CCCCC1	x	-23
91	Cc1ccc(CCCC(=O)O)cc1	2.4	-4
92	CCOC(=O)c1c(C=O)oc2c(C)cc(OC(=O)/C=C/c3ccccc3)c(Br)c12	-0.6	x
93	Cc1cc(C)c2c(N)c(C(=O)Nc3nnc(-c4cccs4)s3)sc2n1	12	x
94	COc1ccc(CNC2CCCCC2)cc1OC	0.6	3
95	O=C(O)CN1C(=O)Cc2ccccc2C1=O	x	-11
96	Nc1cnn(C2OC(CO)C(O)C2O)c(=O)n1 (centres undefined)	x	32
97	O=C(Nc1ncnc2oc(-c3ccccc3)c(-c3ccccc3)c12)c1ccccc1	0.6	15
98	COc1ccc2c(c1)nc1n2CN(CC2CCCO2)CN1Cc1ccccc1 (centres undefined)	-0.1	-1
99	O=C(CC1SC(=NCc2ccccc2)NC1=O)Nc1ccccc1F (centres undefined)	x	-13
100	CNC(=O)c1ccc(OCc2ccccc2)c(OC)c1	0.0	7

Next section.
nr	molecule	MgrA DNA FP	S aureus helic
101	O=C(/C=C/c1ccc(Br)cc1)NCCCn1ccnc1	-1.4	3
102	COc1ccc(SCc2cc3c(F)c(F)c(F)c(F)c3o2)cc1	-0.5	x
103	CSc1nnc(-c2ccccc2Cl)o1	x	-5&11
104	CCOC(=O)N1CCN(C(=O)COc2ccc(S(=O)(=O)NCC(C)C)cc2C)CC1	1.4	-8
105	COc1ccc(-n2c(-c3ccco3)nc3c(cnn3-c3ccc(C)c(C)c3)c2=O)cc1Cl	x	-37
106	Cc1noc(C)c1COc1cccc(C(=O)NC(C)C2CC3CCC2C3)c1 (centres undefined)	x	2
107	NS(=O)(=O)c1ccc(Oc2ccccc2)cc1	x	4
108	O=C1NC2=C(C(=O)OC2)C(c2ccccc2)N1 (centres undefined)	0.0	-5
109	CCOC(=O)Cn1cc(C)c(=O)[nH]c1=O	2.2	14
110	COc1ccc(-c2noc(CC(=O)N3CC(C)CC(C)C3)n2)cc1 (centres undefined)	x	17
111	CNC(=O)C(C)SCc1ccccc1 (centres undefined)	-2.0	10
112	CCCCN(CC)c1ncnc2ccc(C)cc12	x	2
113	N#Cc1nc(-c2ccc(C(F)(F)F)cc2)oc1N	0.0	x
114	NS(=O)(=O)c1ccc(CCN=Cc2ccccc2O)cc1	x	-4
115	O=S(=O)(Nc1ccccc1N1CCOCC1)c1ccccc1	-1.3	x
116	Cc1nc(-c2cccs2)sc1-c1ccnn1C(=O)C1CC1	0.8	x
117	CCCCC(C)C(N)=O (centres undefined)	-2.6	2
118	O=C(O)CSCC(=O)Nc1ccc(Cl)cc1Cl	-3.9	x
119	CCc1nnc(SCC(=O)N2c3ccccc3Sc3ccccc32)n1N	x	-17
120	O=c1[nH]c2cc(C(F)(F)F)cc(Br)c2[nH]c1=O	-3.5	x
121	Cc1ccc(Cl)cc1N1C(=O)CC(N2CCC(C(N)=O)CC2)C1=O (centres undefined)	4.4	27
122	CC1=C(C(=O)OCCOC(C)C)C(c2ccccc2OCc2ccccc2)NC(=O)N1 (centres undefined)	-4.9	x

High-throughput results (PubChem BioAssay)

Some of the compounds tested, so the mix of outcomes need not match the whole.
